Screens: PubChem BioAssay, several laboratories
RGS16-Gao HTS – RGS16-Galphao interaction regulator (human). 0.38% of 220,000 active. bead-based flow cytometry RGS16-Galphao binding, fluorescence; actives lie on both sides. binding response (% of control), % at 10 µM. AID 1441. O15492+P09471;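 active means below 25% or above 175%, edge rows of some plates excepted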;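 further: Galphao activated by GDP with aluminum fluoride before binding; 100% = wells without compound and 0% = beads without RGS; some results beyond the cut were filed as inactive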
Target sequence (O15492 whole entry, looked up): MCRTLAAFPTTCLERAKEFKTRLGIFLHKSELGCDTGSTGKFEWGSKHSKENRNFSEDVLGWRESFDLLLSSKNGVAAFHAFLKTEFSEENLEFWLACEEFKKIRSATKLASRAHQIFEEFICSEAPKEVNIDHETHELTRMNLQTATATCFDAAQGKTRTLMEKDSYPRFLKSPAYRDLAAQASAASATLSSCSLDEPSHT
Target sequence (P09471 whole entry, looked up): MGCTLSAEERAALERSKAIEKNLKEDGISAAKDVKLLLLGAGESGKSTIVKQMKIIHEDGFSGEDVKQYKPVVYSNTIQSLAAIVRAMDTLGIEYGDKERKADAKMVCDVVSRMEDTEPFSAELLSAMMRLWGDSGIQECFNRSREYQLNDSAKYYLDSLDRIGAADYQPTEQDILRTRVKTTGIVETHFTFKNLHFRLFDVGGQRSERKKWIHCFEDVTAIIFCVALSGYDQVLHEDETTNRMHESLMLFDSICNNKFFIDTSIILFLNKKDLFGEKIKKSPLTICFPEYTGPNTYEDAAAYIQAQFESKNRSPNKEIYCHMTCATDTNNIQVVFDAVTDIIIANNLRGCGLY
GALR2 ag – activates the human galanin receptor 2; GALR2-expressing cells, agonist activation read-out; activation, %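 (tested at 5 µM)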; 0.48% of 140,000 active;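 active means above mean plus 3 SD of all compounds, about 5% in these data, not always enough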;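 further: 0% = vehicle buffer wells and 100% = reference agonist at full effect; tested in CHO reporter cells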
Target sequence (O43603 whole entry, looked up): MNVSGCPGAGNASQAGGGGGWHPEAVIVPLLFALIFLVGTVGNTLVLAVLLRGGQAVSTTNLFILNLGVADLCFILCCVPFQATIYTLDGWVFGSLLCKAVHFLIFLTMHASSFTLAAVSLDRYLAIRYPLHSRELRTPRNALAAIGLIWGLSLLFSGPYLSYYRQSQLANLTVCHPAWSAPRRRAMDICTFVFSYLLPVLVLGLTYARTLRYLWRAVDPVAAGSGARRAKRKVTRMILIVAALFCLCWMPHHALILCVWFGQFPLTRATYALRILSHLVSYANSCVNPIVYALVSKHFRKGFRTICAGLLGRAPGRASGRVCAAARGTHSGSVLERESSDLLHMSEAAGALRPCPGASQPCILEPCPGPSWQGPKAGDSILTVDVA
INS promoter inh – TRM-6 insulin promoter activity inhibition; TRM-6 cells (human fetal islet line), insulin promoter-eGFP reporter, imaging; reporter expression induced with tamoxifen; inhibition, % at 2 µM; 0.9% of 130,000 active; AID 1273;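 active means inhibition above the mean plus 3 SD, with well images judged a real hit on visual review, cut at about 60% in these data, passing the limit was not always enough; inconclusive means inhibition over the cutoff but images rejected on review; inactive means inhibition not above the cutoff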
PKD1 inh – blocks activity of human protein kinase D1; Q15139; PKD1 kinase fluorescence polarization assay; inhibition, %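 (about 10 µM by stock and volumes)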; 0.056% of 200,000 active;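 active means inhibition of 50% or more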;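 further: controls were vehicle for no effect and a reference inhibitor for full effect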
HSV augment – increases HSV replication in cells. AID 1956. HSV replication augmentation in cells, fold increase. maximum fold increase. 0.005% of 220,000 active;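 active means peak rise of 1.5-fold or more in the series; inconclusive means self-fluorescent or not available for retest; tested in PC3 cells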;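 further: first round at 10 µM; read as green reporter fluorescence; hits show the peak of a series up to 25 µM; 1 = signal of infected wells without compound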
INS promoter inh cell count – recorded beside INS promoter inh, whose call it bears; normalized cell count, %; measured here: cell count, toxicity; reference of the scale not given here;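 cells exposed to compound for 48 h; stained nuclei by imaging scaled within each plate; lower means fewer cells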
HSV augment primary fold – further read-out of HSV augment, marked with its call; fold increase; compound at 10 µM; measured here: primary screen fold increase 10 uM; tested in PC3 cells;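 GFP signal in the first replicate; 1 = infected wells without compound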
* hit, by the source's call. The order is random; 1.3% or so of the library scored in one or more.

COc1ccccc1NC(=O)C1=C(C)NC(=O)NC1c1ccccc1F (centres undefined) was read as RGS16-Gao HTS 101.6, GALR2 ag -1.5, INS promoter inh 40.0, PKD1 inh -1.4, HSV augment inactive, INS promoter inh cell count 57.9 and HSV augment primary fold 0.9.
`O=C(Nc1nc(-c2nc3ccccc3s2)cs1)c1ccco1` gave RGS16-Gao HTS 98.6, GALR2 ag -0.4, PKD1 inh -4.8, HSV augment inactive and HSV augment primary fold 1.
`Cc1ccc(C(=O)Nc2ccc(N3CCCC3)cc2)cc1` gave RGS16-Gao HTS 98.9, PKD1 inh -1.2, HSV augment inactive and HSV augment primary fold 0.92.
Cc1ccccc1Cn1ccc(NC(=O)CCSc2nc(-c3ccco3)cc(C(F)(F)F)n2)n1 was read as RGS16-Gao HTS 89.4, GALR2 ag -1.2, INS promoter inh -50.6, PKD1 inh -3.3, HSV augment inactive, INS promoter inh cell count 76.3 and HSV augment primary fold 0.98.
O=C(O/N=C1/CCCc2occc21)c1ccc(Cl)cc1Cl was read as RGS16-Gao HTS 102.0, HSV augment inactive and HSV augment primary fold 0.96.
For CC(C)(C)c1ccc(C(=O)c2c[nH]c(C(=O)NCCCN3CCOCC3)c2)cc1 the results were RGS16-Gao HTS 100.9, GALR2 ag -1.0, PKD1 inh -10.5, HSV augment inactive and HSV augment primary fold 0.79.
Cn1c(=O)c2[nH]c(N3CCCCC3)nc2n(C)c1=O was read as RGS16-Gao HTS 102.6, HSV augment inactive and HSV augment primary fold 1.02.
Cc1ccc(NC(=O)c2c(F)cccc2Cl)cc1NS(C)(=O)=O was read as RGS16-Gao HTS 97.0, HSV augment inactive and HSV augment primary fold 1.07.
Screening N#C/C(=C/c1ccc(-c2ccc(S(N)(=O)=O)cc2)o1)C(=O)Nc1ccccc1 returned RGS16-Gao HTS 110.9, GALR2 ag 0.5, PKD1 inh -7.2, HSV augment inactive and HSV augment primary fold 0.77.
COc1ccc(OC)c(S(=O)(=O)N(C)CC(=O)O)c1 was read as RGS16-Gao HTS 90.4, GALR2 ag -0.8, PKD1 inh -2.4, HSV augment inactive and HSV augment primary fold 0.97.
`Cc1nn(-c2ccccc2)c2[nH]c(=O)c(CNc3ccc(N4CCOCC4)cc3)cc12` gave RGS16-Gao HTS 95.6, GALR2 ag 0.6, PKD1 inh -10.1 and HSV augment inconclusive.
Screening O=C(COS(=O)c1ccccc1)Nc1cc(Cl)ccc1N1CCOCC1 (centres undefined) returned RGS16-Gao HTS 99.9, PKD1 inh -2.2, HSV augment inactive and HSV augment primary fold 0.92.
COc1ccc(C(=O)Sc2ccc(C)cc2)cc1OC was read as RGS16-Gao HTS 99.3, GALR2 ag -1.1, INS promoter inh 26.1, PKD1 inh -4.4, HSV augment inactive, INS promoter inh cell count 82.2 and HSV augment primary fold 1.06.
CCN1CCN(CCC(=O)Nc2ccccc2OC)CC1 was read as RGS16-Gao HTS 105.7, GALR2 ag 0.9, INS promoter inh -35.7, PKD1 inh -1.2, HSV augment inactive, INS promoter inh cell count 161.0 and HSV augment primary fold 1.02.
`CC12CNCC(C)(CN(C(c3ccccc3)c3ccccc3)C1)C2` gave RGS16-Gao HTS 112.3, GALR2 ag -0.6, INS promoter inh -19.1, PKD1 inh -6.7, HSV augment inactive, INS promoter inh cell count 86.7 and HSV augment primary fold 0.68.
For CCOc1ccc(N2C(=O)CC(Sc3nccc(C)n3)C2=O)cc1 (centres undefined) the results were RGS16-Gao HTS -134.1, GALR2 ag -0.7, PKD1 inh -1.6, HSV augment inactive and HSV augment primary fold 0.907.
For O=[N+]([O-])c1ccc(COc2ccc(-c3[nH]ncc3-c3ccccc3)c(O)c2)cc1 the results were RGS16-Gao HTS 34.0, GALR2 ag 1.0, INS promoter inh 25.0, PKD1 inh -0.4, HSV augment inactive, INS promoter inh cell count 89.1 and HSV augment primary fold 1.02.
Cc1ccc(NC(=O)c2cccs2)cc1S(=O)(=O)N(C)C was read as RGS16-Gao HTS 104.5, GALR2 ag -1.0, INS promoter inh -7.9, PKD1 inh -5.6, HSV augment inactive, INS promoter inh cell count 84.7 and HSV augment primary fold 0.98.
Screening C=CCN(CC=C)C(=S)NC(=O)/C=C/c1ccc(OC)cc1 returned RGS16-Gao HTS 101.5, GALR2 ag -1.4, INS promoter inh -15.4, PKD1 inh -20.9, HSV augment inactive, INS promoter inh cell count 88.4 and HSV augment primary fold 0.8.
Screening COCCn1c(SCc2nc3ccccc3c(=O)[nH]2)nnc1-c1ccncc1 returned RGS16-Gao HTS 150.5, GALR2 ag -1.1, INS promoter inh 33.3, PKD1 inh -9.1, HSV augment inactive, INS promoter inh cell count 97.6 and HSV augment primary fold 1.25.

By substructure, the compounds so far containing a furan ring, fused or not
`O=C(Nc1nc(-c2nc3ccccc3s2)cs1)c1ccco1` gave RGS16-Gao HTS 98.6, GALR2 ag -0.4, PKD1 inh -4.8, HSV augment inactive and HSV augment primary fold 1.
Cc1ccccc1Cn1ccc(NC(=O)CCSc2nc(-c3ccco3)cc(C(F)(F)F)n2)n1 was read as RGS16-Gao HTS 89.4, GALR2 ag -1.2, INS promoter inh -50.6, PKD1 inh -3.3, HSV augment inactive, INS promoter inh cell count 76.3 and HSV augment primary fold 0.98.
O=C(O/N=C1/CCCc2occc21)c1ccc(Cl)cc1Cl was read as RGS16-Gao HTS 102.0, HSV augment inactive and HSV augment primary fold 0.96.
Screening N#C/C(=C/c1ccc(-c2ccc(S(N)(=O)=O)cc2)o1)C(=O)Nc1ccccc1 returned RGS16-Gao HTS 110.9, GALR2 ag 0.5, PKD1 inh -7.2, HSV augment inactive and HSV augment primary fold 0.77.

Remaining list, next part:
Screening CN(CC(=O)Nc1ccc(F)c(F)c1F)c1cnccn1 returned RGS16-Gao HTS 105.0, GALR2 ag -2.1, PKD1 inh 2.5, HSV augment inactive and HSV augment primary fold 0.63.
Screening CCN(C(=O)CN1CCOCC1)c1c(N)n(Cc2ccccc2)c(=O)[nH]c1=O returned RGS16-Gao HTS 102.5, INS promoter inh 33.3, PKD1 inh -2.9, HSV augment inactive, INS promoter inh cell count 97.3 and HSV augment primary fold 0.68.
For C=CCNc1nc(-c2sc(NC(C)=O)nc2C)cs1 the results were RGS16-Gao HTS 121.9, GALR2 ag -1.4, INS promoter inh -71.4, PKD1 inh -1.8, HSV augment inactive, INS promoter inh cell count 78.8 and HSV augment primary fold 0.91.
Screening COc1ccc(C(=O)NC(=S)NCCc2ccccc2)cc1 returned RGS16-Gao HTS 103.5, PKD1 inh 1.6, HSV augment inactive and HSV augment primary fold 1.01.
For Cn1c(=O)c2c(nc(NCc3ccc4c(c3)OCO4)n2Cc2ccccc2Cl)n(C)c1=O the results were RGS16-Gao HTS 101.3, GALR2 ag -2.1, INS promoter inh 11.1, PKD1 inh -7.3, HSV augment inactive, INS promoter inh cell count 110.4 and HSV augment primary fold 0.89.
For O=C(C1CC1)N1CCc2cc(Br)cc(S(=O)(=O)NCCCN3CCCC3)c21 the results were RGS16-Gao HTS 96.4, GALR2 ag -2.5, INS promoter inh 11.5, PKD1 inh -11.3, HSV augment inactive, INS promoter inh cell count 107.9 and HSV augment primary fold 0.89.
Screening CC(C1CC2CCC1C2)N1CC(O)=C(c2nc3ccccc3[nH]2)C1=N (centres undefined) returned RGS16-Gao HTS 98.2, HSV augment inactive and HSV augment primary fold 1.
`COCCNC(=O)COC(=O)c1cccnc1SC` gave RGS16-Gao HTS 96.2, PKD1 inh -4.0, HSV augment inactive and HSV augment primary fold 1.05.
`Cc1cccc(OCCn2c(NC(=O)c3ccco3)nc3ccccc32)c1` gave RGS16-Gao HTS 97.5, GALR2 ag 0.9, INS promoter inh 5.4, PKD1 inh 5.8, HSV augment inactive, INS promoter inh cell count 114.1 and HSV augment primary fold 0.98.
Screening C/C=C/C=C\C(=O)Nc1cccc(C2=NOC3(C2)C[C@@H](C(N)=O)N(C(=O)c2cc([N+](=O)[O-])cc([N+](=O)[O-])c2)C3)c1 (some centres undefined) returned RGS16-Gao HTS 99.9, HSV augment inactive and HSV augment primary fold 1.01.
`O=C(c1ccc(OCC2CCCO2)cc1)N1CCN(c2ccccc2)CC1` (centres undefined) gave RGS16-Gao HTS 93.4, GALR2 ag -1.8, INS promoter inh 0.0, PKD1 inh -50.9, HSV augment inactive, INS promoter inh cell count 83.0 and HSV augment primary fold 0.9.
`CN(C)S(=O)(=O)c1cccc(NC(=O)COC(=O)c2c[nH]c(=O)[nH]c2=O)c1` gave RGS16-Gao HTS 106.2, INS promoter inh -5.0, PKD1 inh -3.0, HSV augment inactive, INS promoter inh cell count 204.1 and HSV augment primary fold 1.
`Cc1ccc(NCc2nnc(SCC(=O)NCc3ccco3)n2CC2CCCO2)c(C)c1` (centres undefined) gave RGS16-Gao HTS 107.6, GALR2 ag 0.7, PKD1 inh -12.7, HSV augment inactive and HSV augment primary fold 0.86.
Screening CN1/C(=C\C=C2\N=C(c3ccc(F)cc3)OC2=O)C(C)(C)c2ccccc21 returned RGS16-Gao HTS 107.1, GALR2 ag 0.7, INS promoter inh -121.4, PKD1 inh -1.9, HSV augment inconclusive and INS promoter inh cell count 53.1.
Cc1ccc(CN(CC(=O)N/N=C/c2ccccc2[N+](=O)[O-])S(=O)(=O)c2ccc(C)cc2)cc1 was read as RGS16-Gao HTS 100.8, GALR2 ag -3.6, INS promoter inh 8.6, PKD1 inh 3.7, HSV augment inactive, INS promoter inh cell count 118.2 and HSV augment primary fold 0.96.
`Cc1ccc(C)c(NC(=O)CSc2n[nH]c(-c3ccncc3)n2)c1` gave RGS16-Gao HTS 99.7, GALR2 ag -2.0, INS promoter inh -52.8, PKD1 inh -2.1, HSV augment inactive, INS promoter inh cell count 66.7 and HSV augment primary fold 0.88.
`CCOC(=O)C1C(=O)NC(SCC(N)=O)=C(C#N)C1c1ccccc1OCC` (centres undefined) gave RGS16-Gao HTS 102.6, GALR2 ag -0.6, INS promoter inh 8.8, PKD1 inh -12.5, HSV augment inactive, INS promoter inh cell count 85.9 and HSV augment primary fold 1.02.
Screening Cc1ccc(/C([O-])=C(/C(=S)NCCN2CCOCC2)[n+]2ccccc2)cc1[N+](=O)[O-] returned RGS16-Gao HTS 99.6, PKD1 inh -6.5, HSV augment inactive and HSV augment primary fold 0.99.
O=C(CSc1ccc2ccccc2c1)Nc1nc2ccccc2[nH]1 was read as RGS16-Gao HTS 62.1, GALR2 ag 1.6, INS promoter inh -43.8, PKD1 inh -3.5, HSV augment inactive, INS promoter inh cell count 64.8 and HSV augment primary fold 1.02.
`O=C(Cc1ccccc1)NCC(=O)OCC(=O)c1ccc(Cl)c([N+](=O)[O-])c1` gave RGS16-Gao HTS 120.5, GALR2 ag -1.2, PKD1 inh 1.8, HSV augment inactive and HSV augment primary fold 0.87.
Screening C/C(=N/Nc1nc(-c2ccccc2)cc(-c2ccccc2)n1)c1ccc(N)cc1 returned RGS16-Gao HTS 102.1, GALR2 ag 0.6, PKD1 inh 6.8, HSV augment inactive and HSV augment primary fold 1.2.
Screening CCS(=O)(=O)Nc1cccc(-c2nc3cccnc3s2)c1 returned RGS16-Gao HTS 105.2, HSV augment inactive and HSV augment primary fold 0.92.
CC1(C)CC(=O)C(C=NC(CCC(N)=O)C(=O)O)=C(O)C1 (centres undefined) was read as RGS16-Gao HTS 100.3, GALR2 ag -2.6, INS promoter inh 9.2, PKD1 inh -1.1, HSV augment inactive, INS promoter inh cell count 69.5 and HSV augment primary fold 1.07.
CCCCC(=O)Nc1cc(C)c2c(=O)oc3ccccc3c2n1 was read as RGS16-Gao HTS 98.3, GALR2 ag -1.8, PKD1 inh -16.9, HSV augment inactive and HSV augment primary fold 0.98.
`CC(=O)Nc1ccc(C(=O)OCC(=O)Nc2ccccc2Sc2ccccc2)cc1` gave RGS16-Gao HTS 103.5, GALR2 ag -0.7, INS promoter inh 0.0, PKD1 inh 0.9, HSV augment inactive, INS promoter inh cell count 136.7 and HSV augment primary fold 0.83.
Screening O=C(O)CCCn1cc(NC(=O)c2c(F)cccc2F)cn1 returned RGS16-Gao HTS 96.1, INS promoter inh -28.6, PKD1 inh -3.7, HSV augment inactive, INS promoter inh cell count 81.4 and HSV augment primary fold 0.93.
Cc1c(N=C2SCC(=O)N2/N=C\c2ccc(Br)cc2)c(=O)n(-c2ccccc2)n1C was read as RGS16-Gao HTS 103.0, GALR2 ag 0.3, INS promoter inh -20.0, PKD1 inh 1.7, HSV augment inactive, INS promoter inh cell count 107.3 and HSV augment primary fold 0.89.
